Vif TR-FRET: inhibitors of Vif binding to APOBEC3G peptide, primary screen, biochemical, TR-FRET, GST-Vif 1-94, biotin-A3G peptide, dose response retest (AID 1117319) | TR-FRET GST-Vif / biotin-A3G peptide binding; higher % means a stronger effect; test concentration not given here; strong numbers were not always called active | inhibition, %; hits with a dose series show IC50 in µM | hit rate 0.57% among 260,000;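 active = above the screen mean plus three standard deviations and confirmed in dose response; inconclusive = results disagree or hit not tested in dose response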;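 note: Vif residues 1-94 fused to GST binding biotinylated APOBEC3G peptide 110-148; 0% = full assay without inhibitor and 100% = GST in place of GST-Vif; retest series ran down from 100 µM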
rRNA inh HTS: selective bacterial rRNA inhibition in E. coli | E. coli WT GFP vs humanized-ribosome RFP mutants, fluorescence, 24 h; hits give low values; DMSO median 0, no signal -100 | GFP signal change (wild-type ribosome), % (concentration not given with the values) | hit rate 1.6% among 350,000 | AID 720706;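 active = significant combined selectivity score with lowered wild-type GFP, culture density cut under 30%, mutant RFP and density less affected; inactive = any of these conditions unmet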; note: one replicate is shown; some compounds called inactive have numbers as strong as hits
AF4-AF9 inh: blocks AF4 peptide binding to human AF9. P42568. AlphaScreen, biotin-AF4 peptide binding to FLAG-AF9. inhibition, % at 10 µM. hit rate 0.47% among 350,000. AID 651704;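 active = every replicate reaching a set inhibition limit, whatever the replicate mean, cut at about 25% in these data; inconclusive = mean inhibition reaches that limit but some replicates miss it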;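 note: 0% = plate neutral control median and 100% = total signal loss; the record names both 10 and 1 µM as test concentration; the first replicate is given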
Target sequence (P42568 whole entry, looked up): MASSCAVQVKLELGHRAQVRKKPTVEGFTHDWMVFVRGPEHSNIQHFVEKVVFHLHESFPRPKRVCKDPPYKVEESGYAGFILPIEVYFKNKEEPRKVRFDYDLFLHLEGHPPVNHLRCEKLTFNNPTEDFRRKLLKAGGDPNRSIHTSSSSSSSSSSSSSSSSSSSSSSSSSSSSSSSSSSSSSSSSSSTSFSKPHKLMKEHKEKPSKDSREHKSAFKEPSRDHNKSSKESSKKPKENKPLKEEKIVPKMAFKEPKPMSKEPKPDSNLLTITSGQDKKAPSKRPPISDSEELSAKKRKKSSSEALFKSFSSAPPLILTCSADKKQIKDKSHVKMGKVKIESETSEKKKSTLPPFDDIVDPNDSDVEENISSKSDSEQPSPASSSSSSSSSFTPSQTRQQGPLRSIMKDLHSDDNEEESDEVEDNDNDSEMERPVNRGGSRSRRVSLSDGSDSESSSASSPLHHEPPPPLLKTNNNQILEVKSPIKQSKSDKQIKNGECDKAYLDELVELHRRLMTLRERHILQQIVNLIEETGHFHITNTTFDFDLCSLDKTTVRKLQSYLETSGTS
rRNA inh HTS OD600: further read-out of rRNA inh HTS, marked with its call; OD600 change, %; measured here: OD600 growth;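 optical density of the mix in the first replicate; 0 = DMSO median and -100 = no signal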
rRNA inh HTS RFP: also measured in rRNA inh HTS; calls as there; RFP signal change, %; measured here: RFP humanized mutant strains;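 first replicate; 0 = DMSO median and -100 = no signal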
* hit, by the source's call; ? = inconclusive; & = joins results of further samples.

SMILES	Vif TR-FRET	rRNA inh HTS	rRNA inh HTS OD600	rRNA inh HTS RFP	AF4-AF9 inh
CN(C(=O)c1cccc(NC(=O)Cc2ccc(NC(=O)C3CCCN(C(=O)C4CCCC4)C3)cc2)c1)C1CCCC1 (configuration not stated)	0%	2	-3	2.6	-11
NC(=N\N=Cc1ccco1)/C(N)=N/N=Cc1ccco1	27%	5	13	-5.5	2.9
N#Cc1ccccc1S(=O)(=O)N1CCNS(=O)(=O)c2ccccc21	4%	17	4	1.2	1.0
O=C(c1ccc(OCC2CCCO2)cc1)N1CCN(S(=O)(=O)c2cccc(F)c2)CC1 (configuration not stated)	8%	0	3	-1.7	2.5
CC(C)(C)S(=O)(=O)N1C[C@H]2C(=CC[C@@H]3C(=O)N(c4ccccc4)C(=O)[C@@H]32)[C@H]1CCO	-1%	-3	9	0.5	1.0
COc1cccc(CN(C)C(=O)c2cccc(S(=O)(=O)N3CCN(c4ccccc4)CC3)c2)c1	-2%	-9	-7	4.8	8.7
COc1cc(C(=O)NCc2ccccc2Cl)ccc1OCC(=O)N1CCOCC1	6%	3	9	-2.1	-17
COc1ccc(Cl)cc1NC(=O)COC(=O)CCNS(=O)(=O)c1cccs1	-9%	-4	-9	1.2	-2.9
CN(C(=O)c1cc(-c2cccs2)nn1-c1ccccc1)C1CCS(=O)(=O)C1 (configuration not stated)	1%	5	5	1.1	0.9
CN(C(=O)c1cccc(NC(=O)Cc2ccc(NC(=O)C3CCN(C(=O)C4CCCCC4)CC3)cc2)c1)C1CCCCC1	3%	-8	-14	1.5	-7.7
COc1ccc(S(=O)(=O)N2CCCCCC2)cc1NC(=O)CCNC(=O)c1ccccc1Cl	-6%	4	-2	2.9	-2.2
OCCN(Cc1ccccc1)Cc1ncccc1O	-4%	15	7	2.9	-45
CC(C)(C)OC(=O)N1CCC(C(=O)Nc2cccc(C(=O)NCCCc3ccccc3)c2)CC1	2%	-24	-34	-5.0	0.2
CCC1(c2ccccc2)SC(=O)NC1=O (configuration not stated)	-10%	-1	1	3.7	0.5
CCN1C(=O)[C@H]2[C@H]3CN=C(SCc4ccccc4)N3[C@@](Cc3ccccc3)(C(=O)OC)[C@H]2C1=O	6%	-35	-46	-9.4	3.7
CC(=O)N1c2ccccc2Sc2ccc3ccccc3c21	2%	-64	-72	-15	0.5
CCn1c2ccccc2c2cc(NC(=O)N3CCCCC3)ccc21	-2%	-14	-17	-1.1	-8.3
CCCCn1c(NCc2ccc(OC)cc2O)nc2ccccc21	3%	16	14	2.4	-5.7
CC(C)Oc1ccc(C(=O)Nc2cc(S(=O)(=O)N3CCOCC3)ccc2N2CCOCC2)cc1	-14%	-1	0	-2.2	0.5
C[C@H]1CCCCO[C@@H](CN(C)S(=O)(=O)c2ccc(Cl)cc2)[C@@H](C)CN([C@@H](C)CO)C(=O)c2cc(NS(=O)(=O)c3ccccc3)ccc2O1	0%	15&3	9&6	1.2&6.8	-3.6&1.6
CC1(c2cccc3ccccc23)OC(=O)c2ccccc21 (configuration not stated)	-5%	-52	-66	-12	-5.1
Cc1ccc(S(=O)(=O)N2C[C@]3(O)C[C@@H]4C(=O)N(c5ccccc5)C(=O)[C@@H]4C[C@]3(OC(=O)Nc3cccs3)C2)cc1	7%	-9	11	40	1.3
O=C1NCCOC(=O)[C@@H](Cc2ccc(F)cc2)CC/C=C/C[C@H]1CC(=O)N(CCO)Cc1ccccc1	3%	-10	-23	-1.9	-2.3
COc1ccc(OC)c(C(=O)COC(=O)c2cccnc2SC)c1	-8%	-9	-10	-3.6	-3.4
COc1cc(S(=O)(=O)n2ccc(C)n2)c(C)cc1C	-4%	-7	-7	-0.3	3.2
CC(C)C[C@H]1CNC(=S)N1CC1CCN(CCCC2CCCCC2)CC1	-7%	4	-4	5.2	4.0
CCc1nc2ccccc2c(C(=O)OCC(=O)N(CC(C)C)c2c(N)n(Cc3ccccc3)c(=O)[nH]c2=O)c1C	-9%	-2	6	2.8	-0.8
CC1C(=O)c2ccccc2CC1C(=O)O (configuration not stated)	-2%	2	15	-5.1	-0.7
CCc1ccc(NC(=O)c2ccc3c(c2)CCN3S(C)(=O)=O)cc1	0%	-3	11	-3.1	-4.1
CCN1C[C@@H]2[C@@H]3C(=O)N(Cc4ccccc4)C(=O)[C@@H]3[C@](CC)(C(=O)OC)N2C1=NC1CCCCC1	-3%	5	6	-1.2	-3.2
Oc1cccc(CCc2ccccn2)c1	-4%	0	0	1.4	1.6
O=C(C=C(C(=O)c1ccccc1)c1ccccc1)c1ccccc1	5%	-16	-19	1.7	6.5
COC(=O)C1CC2=C(CCCC2=O)NC1=O (configuration not stated)	0%	15	13	1.5	-9.0
CN(C(=O)COc1ccccc1)c1ccc([N+](=O)[O-])cc1	0%	-11	5	-3.5	0.6
CCN(CC)CCNc1c(C)cc(CO)c(Cl)c1C	2%	5	4	0.9	0.0
C[C@@H]1CCCCO[C@@H](CN(C)S(=O)(=O)c2ccc(F)cc2)[C@@H](C)CN([C@H](C)CO)C(=O)c2cc(NC(=O)c3ccccc3)ccc2O1	1%	13&-3	12&0	7.1&-1.1	-2.9&-0.9
O=S1c2ccccc2Sc2ccccc21	3%	0	-7	0.2	2.5
C[C@H]1COC(=O)[C@H](Cc2ccc(F)cc2)CC/C=C/C[C@@H](CC(=O)N(CCO)Cc2ccccc2)C(=O)N1	3%	5	11	-5.3	-3.3
C[C@@H]1CN([C@H](C)CO)C(=O)CCCn2nncc2CO[C@H]1CN(C)S(=O)(=O)c1ccc(C#N)cc1	4%	15&1	4&0	-0.9&-1.3	0.2&-1.1
O=C(NCc1ccccc1Cl)c1ccc(S(=O)(=O)NCc2ccco2)cc1	-3%	-4	-5	-0.2	3.5
CN(C(=O)C1CC1)c1ccccc1	1%	12	12	-2.2	-1.8
COc1cc(NC(=O)CN2C(=O)COc3ccccc32)cc(OC)c1	-2%	-4	8	1.1	-0.5
CC(=O)Nc1cccc(C(=O)OCC(=O)NC(=O)NC2CCCC2)c1	2%	-3	-2	-2.2	-2.0
CC(C)C#Cc1ccc2c(c1)O[C@@H](CN(C)C(=O)c1cnccn1)[C@@H](C)CN([C@@H](C)CO)S2(=O)=O	3%	-2&0	3&-5	-7.1&-1.0	1.1&-8.0&-3.7
CC[C@]12c3[nH]c4cc(CCC(=O)N(C)C)ccc4c3CCN1C(=O)[C@@H](CC(=O)NCc1ccc(OC)c(OC)c1)C[C@@H]2C(=O)N1CCN(C(=O)C2CC2)CC1	-3%	16	8	-1.9	-3.4
Cc1ccc(S(=O)(=O)N=N/C=C2\C=CC=CN2O)cc1	-4%	0	-2	-4.6	0.1
C=COC(=O)NC1CCc2cc(OC)c(OC)c(OC)c2-c2ccc(SC)c(=O)cc21 (configuration not stated)	-1%	7	10	12	8.5
COc1ccc(-c2ccc(OC)c(OC)c2OC)c(OC)c1OC	3%	0	-6	-2.5	-1.5
O=C(NCc1ccccc1)c1ccc(S(=O)(=O)N2CCCCCC2)cc1	-7%	3	5	0.1	-9.3
Cc1ccc(C(C)C)c2oc(=O)cc(-c3ccc(-c4ccc(C(F)(F)F)cc4)cc3)c12	0%	4	1	-1.1	-2.5
Cn1c(N)c(C(=O)COC(=O)CNC(=O)c2ccc(Cl)cc2Cl)c(=O)n(C)c1=O	1%	3	8	-1.3	0.6
CCOC(=O)c1ccc(NC(=O)CN2CCN(CCN=CC3=C(O)CC(C)(C)CC3=O)CC2)cc1	-4%&15%	6	15	0.1	-1.9
Cc1cc(O)c(C(C)C)cc1N=Cc1ccc([N+](=O)[O-])cc1	19µM*	-18	-3	4.3	8.7
O=C(NNCc1ccccc1)c1ccccc1	-11%	1	0	0.5	-3.7
CN(C(=O)COC(=O)c1ccc2c(c1)OCCO2)C1CCCCC1	-6%	0	1	-1.4	?
CCCCCCn1c(=O)n2n(c1=O)[C@@H]1CN(S(=O)(=O)c3ccc(C)cc3)C[C@]1(O)[C@@H](OC(=O)NC1CC1)C2	6%	-15	-13	2.7	-1.0
COc1ccc(CN(C2CC2)S(=O)(=O)c2ccccc2Br)cc1	-13%	-10	-56	-7.2	-1.1
O=C(O)C1CCN(S(=O)(=O)c2ccc3[nH]ccc3c2)CC1	-8%	-1	7	-4.1	-0.5
COc1ccc(-c2coc(CCC(=O)N3CCN(c4cc(C)ccc4C)CC3)n2)cc1	-1%	-8	-11	-8.9	3.7
Cc1ccc(-n2nnnc2SCC(=O)NCC2(N3CCOCC3)CCCCC2)cc1	-7%	-5	-10	0.6	2.4

Some entries already given, reduced to AF4-AF9 inh:
canonical_smiles	AF4-AF9 inh
O=C(NNCc1ccccc1)c1ccccc1	-3.7
CN(C(=O)COC(=O)c1ccc2c(c1)OCCO2)C1CCCCC1	?

(more compounds)
SMILES	Vif TR-FRET	rRNA inh HTS	rRNA inh HTS OD600	rRNA inh HTS RFP	AF4-AF9 inh
OCC1OC(n2cnc3c(NCc4ccccc4O)ncnc32)C(O)C1O (configuration not stated)	2%	3	16	-0.6	1.7
CN(Cc1ccco1)C(=O)CN1C(=O)NC(c2ccccc2)(c2ccccc2)C1=O	0%	-10	-4	0.5	4.4
COC(=O)c1ccc(NC(=O)CN2CCC(NC(=O)c3ccccc3F)CC2)cc1	-4%	-4	-4	-4.1	-3.0
S=c1[nH]nc(NC2CCCCC2)s1	2%	2	14	0.3	2.1
CC[C@@]1(C(=O)OC)N[C@H](CN(C)C(C)=O)[C@@H]2C(=O)N(C)C(=O)[C@@H]21	4%	10	12	2.7	2.1
CCOC(=O)c1c(C)[nH]c(C(=O)OC(C)C(=O)NC2(C#N)CCCCC2)c1C (configuration not stated)	-6%	-5	-3	0.6	4.6
O=C1CCC(C(=O)N(CCO)Cc2ccccc2)CN1CCc1cccc(F)c1 (configuration not stated)	-4%	-4	-4	-6.1	-0.3
O=C(COC(=O)/C=C/c1ccccc1)NC1CCCCCC1	5%	-3	-1	0.2	0.0
CCCCCC(=O)N1C[C@H](n2cc(-c3ccc(F)cc3)nn2)[C@@H](O)C[C@@H]1c1ccc(C)cc1	4%	-14	-13	2.8	0.9
COC(=O)C1(C(=O)OC)C2C(=O)C3C(C21)C3(C(=O)OC(C)(C)C)C(=O)OC(C)(C)C (configuration not stated)	-7%	0	4	-2.2	0.8
C[C@@H]1Cn2cnc(C(=O)Nc3ccc(CNC(=O)OC(C)(C)C)cc3)c2C(=O)N1	-2%	3	7	-4.7	0.3
COC(=O)C(Cc1c[nH]c2ccccc12)NC(=O)CCNC(=O)c1ccco1 (configuration not stated)	1%	5	4	-0.7	-3.2
Nc1ccc2c(c1)C(=Cc1cccnc1)c1ccccc1-2	9%	-64	-78	-20	7.7
CCC(=NNS(=O)(=O)c1ccc(C)cc1)c1ccccc1	2%	2	-5	1.9	1.0
O=C(OCc1cn([C@@H]2CN(CC3CCCCC3)[C@@H](c3ccc(Cl)cc3)C[C@H]2O)nn1)c1ccccc1	8%	4	13	-2.9	-3.0
CCc1ccccc1NC(=O)CN1CCN(C(=O)C(C)NC(=O)c2ccc(Cl)cc2)CC1 (configuration not stated)	-11%	-3	0	-0.4	0.9
C[C@@H]1CN([C@H](C)CO)C(=O)c2cc(Br)cnc2O[C@@H]1CN(C)C(=O)CC1CC1	-2%	5&4	5&11	8.0&-4.3	-7.0&-3.4
Cc1ccc(S(=O)(=O)N2CCC3CC2c2cc(Cl)ccc23)cc1 (configuration not stated)	1%	11	15	2.9	-1.9
O=C1NC(=O)C2(N1)C(=O)c1cccc3cccc2c13 (configuration not stated)	-12%	78	1	3.5	-11
C[C@H]1CN([C@@H](C)CO)C(=O)CCCn2cc(nn2)CO[C@@H]1CN(C)C(=O)c1ccncc1	-1%	8&1	4&4	1.3&-2.4	-0.6&-14&0.6
C(=C1c2ccccc2-c2ccccc21)c1ccncc1	6%	0	4	3.7	2.1
CCN(Cc1ccccc1)C(=O)c1cccs1	-5%	1	-1	0.1	-0.3

Some of these compounds in order of their number in AF4-AF9 inh, ascending:
SMILES	Vif TR-FRET	rRNA inh HTS	rRNA inh HTS OD600	rRNA inh HTS RFP	AF4-AF9 inh
O=C1NC(=O)C2(N1)C(=O)c1cccc3cccc2c13 (configuration not stated)	-12%	78	1	3.5	-11
Cc1ccc(S(=O)(=O)N2CCC3CC2c2cc(Cl)ccc23)cc1 (configuration not stated)	1%	11	15	2.9	-1.9
CCN(Cc1ccccc1)C(=O)c1cccs1	-5%	1	-1	0.1	-0.3
CCc1ccccc1NC(=O)CN1CCN(C(=O)C(C)NC(=O)c2ccc(Cl)cc2)CC1 (configuration not stated)	-11%	-3	0	-0.4	0.9
C(=C1c2ccccc2-c2ccccc21)c1ccncc1	6%	0	4	3.7	2.1

Screens: PubChem, several laboratories

Not all compounds are listed (hit frequency here may not be typical).
